Assay outcomes: PubChem BioAssay, National Center for Advancing Translational Sciences (NCATS)
VDR inh – inhibitors of human vitamin D receptor. Potency, µM, without a hit: max response, negative = inhibition, actives largely listed as inhibitors. AID 504847. VDR-SRC2-3 peptide fluorescence polarization, 2 h. P11473. 400,000 tested, 0.93% active; active = well fitted inhibition curve with a large enough effect; inconclusive = small, poorly fitted or top-dose-only effect, or another doubt; inactive = no such curve, though single readings can be large or run the other way; note: series mostly up to about 120 µM
Target sequence (P11473 whole entry, looked up): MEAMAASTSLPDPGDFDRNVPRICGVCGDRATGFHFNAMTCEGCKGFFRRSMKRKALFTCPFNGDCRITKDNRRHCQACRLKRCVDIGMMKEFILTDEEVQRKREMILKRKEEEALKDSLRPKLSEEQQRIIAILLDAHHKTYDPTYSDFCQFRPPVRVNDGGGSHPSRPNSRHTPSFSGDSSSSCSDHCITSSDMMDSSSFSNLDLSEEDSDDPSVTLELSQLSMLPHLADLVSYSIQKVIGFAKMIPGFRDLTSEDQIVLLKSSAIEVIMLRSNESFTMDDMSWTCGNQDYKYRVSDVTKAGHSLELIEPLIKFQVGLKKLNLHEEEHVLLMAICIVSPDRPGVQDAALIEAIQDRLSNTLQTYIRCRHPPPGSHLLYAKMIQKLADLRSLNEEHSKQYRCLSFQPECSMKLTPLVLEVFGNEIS
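The screen uses fluorescence polarization to detect compounds that interfere with recruitment of the SRC2-3 coactivator peptide to VDR; plates are read after 2 h at room temperature.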
Starred values were filed as active, the others as inactive; u = inconclusive; & = joins results of further samples; [ ] = dose if it differs, or a comment. % is set by controls: 0 for no effect and ±100 for the full control effect; potency is the fitted concentration of half-maximal effect. These rows are one share of the data, so the mix of outcomes need not match the whole.

SMILES	VDR inh
COc1ccc2nc(NC(=O)c3nc(S(=O)(=O)Cc4ccc(C)cc4)ncc3Cl)sc2c1	5.4%
c1ccc(CNCc2ccco2)cc1	-11.2%
COC(=O)c1ccc(Nc2c([N+](=O)[O-])ccc3nonc23)cc1	-10.4%
CN(C)C(=O)C1C2NC(=S)N(c3cccc(Cl)c3)C1(C)Oc1ccc(Cl)cc12 (centres undefined)	4.2%
O=C(CSc1nnc(-c2ccccc2)c(-c2ccccc2)n1)Nc1ccccc1Cl	5.6%
CS(=O)(=O)N(CC(=O)NCc1ccccc1)C1CCCCC1	1.2%
COc1ccccc1CNC(=O)C1CCN(S(=O)(=O)c2cccc3cccnc23)CC1	-25.7%
O=C1CCC(=O)N1Cc1c(Cl)cccc1Cl	11.1%
O=C(Cc1ccc(Cl)cc1)NCCS(=O)(=O)N1CCN(c2ccccc2)CC1	15.9%
CCN(CC)CCn1cnc2c1c(=O)[nH]c(=O)n2Cc1ccccc1	-16.2%
O=C(C1CCC(CNS(=O)(=O)c2cccc3cccnc23)CC1)N1CCc2ccccc21 (centres undefined)	-11.8%
CCCS(=O)(=O)N1CCN(C(=O)c2ccc(-c3ccccc3)cc2)CC1	6.5%
COC(C)C(C(=O)OCC1=CCN2CC[C@H](O)[C@@H]12)C(C)C (some centres undefined)	-5.9%
S=C(NCCC1=CCCCC1)Nc1ccc(Cl)cc1	-10.1%
CSc1ccc(S(=O)(=O)NCC(=O)OC2CCOC2=O)cc1[N+](=O)[O-] (centres undefined)	-14.8%
O=C(O)CSc1sc(=S)sc1SCC(=O)O	6.3%
O=C(O)c1cccc(-n2cccc2/C=C\[N+](=O)[O-])c1	u
O=C(NCCCc1nc2ccccc2n1Cc1ccccc1Cl)c1ccco1	15.5%
COc1cc(C(=O)Nc2nnc(CC(=O)N3CCOCC3)s2)cc(OC)c1OC	-0.8%
CC(CNC(=O)c1cc(Cl)ccc1[N+](=O)[O-])NC(=O)c1cc(Cl)ccc1[N+](=O)[O-] (centres undefined)	10.9%
Cc1cccn2c(=O)nc(SCC(=O)N3CCC(C)CC3)nc12	20.0%
O=C(COCc1cc(-c2ccc3c(c2)OCO3)on1)Nc1cc(Cl)ccc1O	2.3%
Cc1ccc(C(=O)c2ccc([N+](=O)[O-])cc2)c(C)c1	4.5%
Cn1c(NCc2ccccc2F)nc2ccccc21	2.9%
Cc1ccc(CC(=O)N2CCN(C(=O)C3CCCO3)CC2)cc1 (centres undefined)	-0.4%
SMILES	VDR inh
Cc1ccc(NC(=O)c2cc(-n3cnnc3)ccc2Cl)cc1	6.6%
CCOC(=O)c1c(NC(=O)COC(=O)CCNS(=O)(=O)c2ccccc2)sc(C(=O)N(C)C)c1C	-2.7%
CC1Cc2ccccc2N1C(=O)Cn1c(=O)oc2cc(S(=O)(=O)N3CCCCC3)ccc21 (centres undefined)	-13.8%
CCCN1CCC(=NNC(=O)c2ccc(Br)o2)CC1	2.0%
O=C(Oc1coc(CSc2nnc(NC(=O)c3cccs3)s2)cc1=O)c1ccccc1	-7.4%
CCc1nnc(NC(=O)CN2CCCC(C)C2)s1 (centres undefined)	-2.0%
CCCCC/C=C\C\C=C/C=C/C=C/[C@@H](SC[C@H](NC(=O)CC[C@H](N)C(=O)O)C(=O)NCC(=O)O)[C@@H](O)CCCC(=O)O	2.5%
Fc1ccc(Oc2ccnc(Cl)n2)c(Cl)c1	-0.2%
O=C(COc1ccc2c3c(c(=O)oc2c1)CCCC3)NCc1ccccn1	-5.7%
Cc1cccc(-n2nnc(C(=O)N3CCc4ccccc4C3)c2N)c1	-17.5%
O=C(Nc1cccc(F)c1)c1coc(=O)c(Br)c1	4.1%
COc1ccccc1-c1ccc2ncnc(N3CCN(C)CC3)c2c1	-2.8%
CCCCCCCCOC(=O)CCc1c(C)[nH]c(=S)[nH]c1=O	-14.1%
COc1cccc(/C=C/C(=C2/C(=O)N(c3ccccc3)N=C2C)c2ccc(Br)cc2)c1OC	-17.0%
O=[N+]([O-])c1ccc(CCn2ccnc2)cc1	-3.7%
Cc1ccc(S(=O)(=O)Nc2cc(=O)[nH]c(SCc3ccccc3Cl)n2)cc1	-5.4%
CN(CC(=O)Nc1ccc(F)cc1)C(=O)COC(=O)Cc1cccs1	2.1%
COc1cc(OC)c2c(-c3cccc(-c4ccc(C(F)(F)F)cc4)c3)cc(=O)oc2c1	-13.3%&-0.1%
O=C(c1ccc2c(c1)OCO2)N1CCCC1	21.0%
Cc1ccc(S(=O)(=O)N(C)CC(=O)NCCCn2nc(C)cc2C)cc1	-22.2%
CCCC1N=C2c3ccccc3N=C(SCC(=O)NCCc3ccc(Cl)cc3)N2C1=O (centres undefined)	7.3%
O=C(OCc1ccccc1C(F)(F)F)c1ccc(Br)c(S(=O)(=O)N2CCOCC2)c1	-4.8%
O=C1CSC(c2cn(-c3ccccc3)nc2-c2cc3ccccc3oc2=O)N1Cc1ccccc1 (centres undefined)	0.2%
Nn1c(SCc2cn3cc(Cl)ccc3n2)nnc1-c1ccncc1	u
O=C(COc1ccc(S(=O)(=O)N2CCCCC2)cc1)NCC1CCCO1 (centres undefined)	0.8%
SMILES	VDR inh
O=S(=O)(NCc1cccs1)c1cccc(S(=O)(=O)N2CCCCC2)c1	-13.1%
COc1ccc(F)cc1C(=O)C1CCCN(C(=O)Cc2c(C)noc2C)C1 (centres undefined)	-6.5%
CCN1CCN(C(=S)c2ccc(Cl)c(Cl)c2)CC1	u
O=C(O)CCc1nc(-c2ccc(Cl)cc2)no1	-7.9%
CCCNC(=S)NCCN1CCCCC1	1.6%
COc1ccc(NC(=O)c2ccc(NCCCN3CCOCC3)c([N+](=O)[O-])c2)cc1	13.1%
CCc1ccc(C(=O)CCC(=O)Nc2ccc(OC)c(S(=O)(=O)N3CCCCC3)c2)cc1	-19.5%
O=C(NCCCNC(=O)c1ccccc1Br)c1ccccc1Br	-2.0%
Cc1ccc(Cl)c2sc(NC(=O)C3=COCCO3)nc12	13.6%
Cc1cc(C)c2nc(NC(=O)c3ccc([N+](=O)[O-])o3)sc2c1	3.3%
COCCN1C(=O)N(c2cccc(OC)c2)C(=O)C1CC(=O)Nc1ccc(Cl)cc1 (centres undefined)	5.8%
Cc1oc(-c2ccc(Cl)cc2)nc1CN1CCC(C(=O)N2CCN(Cc3ccccc3)CC2)CC1	7.6%
O=C(COc1ccc(S(=O)(=O)Nc2ccc(Cl)cc2)cc1)N1CCOCC1	-11.9%
Cc1[nH]c2ccccc2c1-c1csc(N)n1	48.1%[activator]
CN1CCc2c(sc3c2C(=O)NC(c2ccc(-c4cccc(Cl)c4)o2)N3)C1 (centres undefined)	6.4%
Cc1cc(C)c(S(=O)(=O)N2CCN(C(=O)C3COc4ccccc4O3)CC2)c(C)c1 (centres undefined)	5.2%
CC(C)=CCN1CCN(Cc2cnc(-c3ccccc3)s2)CC1CCO (centres undefined)	-14.1%
Cc1ccc(NC(=O)COC(=O)CCNS(=O)(=O)c2c(Cl)cccc2Cl)cc1	17.5%
COc1ccc(NC(=O)CN(C)C(=O)c2cn(-c3ccccc3)nc2-c2ccc(Cl)cc2)cc1	-6.9%
FC(F)(F)c1cccc(-c2nc3nc(Cl)c(Cl)nc3[nH]2)c1	-12.9%
Cc1ccc(NC(=O)OCCN2CCN(Cc3ccccc3)CCC2=O)cc1C	6.3%&3.7%
Cn1cc(C(=O)c2ccc(Cl)cc2Cl)cc1C(=O)N/N=C(\N)COc1ccccc1	19.1%
C/C(=N\NC(=O)c1nnn(-c2nonc2N)c1CSc1ccc(Cl)cc1)c1ccco1	-21.3%
CC(C)n1c(SCC(=O)N2CCCC2)nc2c1c(=O)n(C)c(=O)n2C	15.5%
COc1ccc(C(=O)CSc2nnc(CNC(=O)c3ccco3)n2C)cc1	-14.0%
SMILES	VDR inh
Cc1ccc2nc(COC(=O)CNC(=O)c3ccccc3)cn2c1	9.9%
NC(=O)c1ccc(Nc2ccc3nonc3c2[N+](=O)[O-])cc1	-21.5%
Cc1nn(C)cc1CN(C)C(=O)CCc1nnc(CCC2CCCCC2)o1	-17.6%
COc1ccc(NC2CCCN(C(=O)COc3ccc(C)cc3)C2)cc1 (centres undefined)	12.9%
C[C@H]1CN(CCc2ccccc2)C(=O)[C@@H]1CC(=O)NCc1ccccc1	-5.1%
CCOc1ccc(CN(CC)C(=O)c2ccc3c(c2)[nH]c(=O)c(=O)n3CC)cc1OC	-25.2%
COc1ccc(C(=O)NCCCN2CCOCC2)cc1	-12.4%
O=C(CSc1nc(=O)n(Cc2cccnc2)c2c1CCC2)Nc1cccc(Cl)c1	9.1%
Cc1ccc(C(=O)Nc2nnc(SCc3cc(=O)c4c(C)ccc(C)c4[nH]3)s2)cc1	10.1%
CCc1c(C)sc(NC(=O)CC#N)c1C#N	-0.5%
Cc1cc(C)cc(OCC(=O)Nc2c(C)ccc3nsnc23)c1	-4.5%
Cn1c(CC(=O)Nc2ccccc2Cl)nnc1SCC(=O)NC1CCCCC1	5.5%
NC(=O)CCn1c2ccccc2c2ccccc21	-17.3%
COc1cccc(C(=O)Nc2ncc3c(n2)CC(C)(C)CC3=O)c1	-3.6%
O=S(=O)(Nc1ccc2cn[nH]c2c1)c1ccc(C(F)(F)F)cc1	17.5%
O=C(CCc1nnc(Cc2ccc3c(c2)OCO3)o1)NCc1nc2ccccc2s1	1.9%
COc1ccccc1-c1ccc2ncnc(Nc3ccccc3)c2c1	-23.6%
Cc1ccc2cc(/C=C/C(=O)c3ccco3)c(Cl)nc2c1	u
COc1ccc(N2C(=O)CC3(CCCC3)CC2=O)cc1	2.7%
COc1ccc(CN2CCn3nc(C(=O)NC(C)C)cc3C2=O)cc1	u
COc1ccc(CN2CCN(C(=O)CCC(=O)c3ccc(C)s3)CC2)cc1OC	3.9%
Cc1onc(-c2ccccc2)c1CNC(=O)CN1C(=O)c2ccccc2C1=O	-25.8%
Cc1nc(NCc2ccccc2)c2cc[nH]c2n1	-4.6%
CC(C)(O)C(=O)NN(Cc1ccccc1)c1ccccc1	2.2%
Cc1ccc(Cc2cn3cc(-c4ccccc4)nc3s2)cc1	-4.3%
SMILES	VDR inh
COC(=O)c1ccc(Cn2c(=O)cc(C(F)(F)F)c3c(C)nn(C)c32)cc1	3.5%
C=C1CCN(C(Cc2ccccc2)C(=O)NCc2ccc(Cl)c(Cl)c2)S(=O)(=O)c2ccccc21 (centres undefined)	8.6%
O=C(NN1CCOCC1)c1ccc(Cl)s1	-2.1%
COc1ccc(C(c2nnnn2Cc2ccccc2)N2CCN(c3ccccc3)CC2)cc1 (centres undefined)	4.8%
Cc1occc1-c1nnc(SCC(=O)Nc2ccccc2)n1CCc1ccccc1	16.0%
CC(C)N1C(=O)c2ccccc2C1C(=O)NC1CCCCCC1 (centres undefined)	21.8%
O=C(OCC(=O)N1CCC(c2ccccc2)=N1)c1ccc([N+](=O)[O-])s1	-7.5%
Cc1nc2cc(CO)ccc2n1C	-6.5%
Cc1coc2cc3oc(=O)c(CCC(=O)NCCCN4CCCC4=O)c(C)c3cc12	-7.2%
COc1cc(C(C(=O)NC2CCCCC2)N(C(=O)c2snc(C(N)=O)c2N)c2ccc(C)cc2)ccc1O (centres undefined)	-6.6%
COc1ccc2sc(N(Cc3cccnc3)C(=O)c3cccs3)nc2c1	8.1%
CCCS(=O)(=O)N1CCC(C(=O)N2CCN(C(=O)OCC)CC2)CC1	-14.6%
CCCCc1nn2c(=O)cc(COC(=O)C3CCCCC3)nc2s1	10.5%
CCOC(=O)C1CCN(C2CCN(Cc3nc(-c4ccccc4)no3)CC2)CC1	21.2%
COc1ccc(CCN2C(=O)N(c3ccc(C)cc3)C(=O)C2CC(=O)Nc2ccc(F)cc2)cc1 (centres undefined)	7.6%
O=S(=O)(c1ccccc1)N1CCN(Cc2ccccc2C(F)(F)F)CC1	3.1%
COC(=O)c1c(SCC(=O)Nc2cc(C)cc(C)c2)[nH]c2ccccc2c1=O	3.9%
COc1ccc2oc(C(=O)Nc3nccs3)c(C)c2c1	11.4%
Cc1cc(C)n(-c2nc3c(c(=O)[nH]c(=O)n3C)n2CC(O)c2ccccc2)n1 (centres undefined)	-2.6%
CCSc1nc(O)c(C2OC(=O)c3c2ccc(OC)c3OC)c(=O)n1CC (centres undefined)	12.9%
CCOc1ccc(N2CC(C(=O)NCc3ccc(C)n3C)CC2=O)cc1 (centres undefined)	-4.1%
Cc1ccc(C(C(=O)Nc2ccc(C(C)C)cc2)N(C)C(=O)c2ccc(=O)[nH]c2)cc1 (centres undefined)	22.3%
CCCCOC(=O)c1ccc(NC(=O)c2cc3c(=O)n4cccc(C)c4nc3s2)cc1	-4.6%
CC(C)(C)c1cnnn1-c1ccc(NC(=O)c2ccc3c(c2)OCO3)cc1	14.4%
Cc1c(C(=O)O)sc(=S)n1-c1ccccc1	2.4%
Cn1nnnc1SCC(=O)Nc1sccc1C(N)=O	-5.8%
CSc1nc(C)cc(C)c1C(N)=O	-3.6%
COc1ccc(NS(=O)(=O)c2cc3c(cc2C)N(C(C)=O)CCO3)cc1	-13.6%&5.9%
Cc1cccc(C)c1NC(=O)C(Cl)C(=O)c1ccccc1 (centres undefined)	u
